Bioassay records as filed in PubChem.
GIRK2 activ – opens human GIRK2 potassium channels; P48051; HEK293-GIRK2 thallium flux, Thallos fluorescence; calls only for hits at 25 µM; 0.05% of 63,000 active; AID 1259325;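 active = among the strongest 0.2% of first-round signals and kept after retests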;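 also: first round at about 10 µM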
Target sequence (P48051 whole entry, looked up): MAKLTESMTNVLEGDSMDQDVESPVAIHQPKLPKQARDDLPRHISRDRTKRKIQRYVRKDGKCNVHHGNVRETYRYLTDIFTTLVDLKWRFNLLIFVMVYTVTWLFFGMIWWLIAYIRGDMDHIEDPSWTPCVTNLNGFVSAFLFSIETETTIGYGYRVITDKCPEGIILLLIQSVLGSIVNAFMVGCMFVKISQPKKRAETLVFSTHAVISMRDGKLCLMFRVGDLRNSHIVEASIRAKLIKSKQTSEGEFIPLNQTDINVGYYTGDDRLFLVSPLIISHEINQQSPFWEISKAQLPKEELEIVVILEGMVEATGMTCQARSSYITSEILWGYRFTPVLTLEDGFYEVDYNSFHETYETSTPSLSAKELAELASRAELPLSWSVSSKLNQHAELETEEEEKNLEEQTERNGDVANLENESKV
Calls only; i = inactive. Not all compounds are listed. The share of hits here may be higher or lower than overall.

# | structure | GIRK2 activ
1 | COc1ccc(-c2cc(=O)[nH]c(SCc3nc(-c4ccccc4OC)oc3C)n2)cc1 | i
2 | CCOc1cc(/C=C2\SC(=S)N(c3cccc(Br)c3)C2=O)ccc1O | i
3 | O=c1ccc(-c2nc(-c3ccncc3)no2)cn1Cc1ccccc1C(F)(F)F | i
4 | O=C(Nc1nc2c(s1)COCC2)c1cc(-c2ccco2)[nH]n1 | i
5 | Clc1cccc(CSC2=NCCN2)c1 | i
6 | O=C(c1cc(-c2ccc(F)cc2)n[nH]1)N1CCN(CC(O)c2cccs2)CC1 (centres undefined) | i
7 | O=C(CSc1nc2c(sc(=S)n2-c2ccccc2)c(=O)[nH]1)NCc1ccccc1 | i
8 | CCOC(=O)C(C)Oc1ccc2c(c1)O/C(=C\c1ccc(OCC)cc1)C2=O (centres undefined) | i
9 | COc1ccc(NC(=O)Cn2c(=O)c(CNc3ccccc3)cc3ccc(C)cc32)c(OC)c1 | i
10 | COc1ccc(N(C)S(=O)(=O)c2ccsc2C(=O)Nc2cccc(Br)c2)cc1 | i
11 | COc1cccc(CNC(=O)c2cnc3c(c(C)nn3-c3ccc(C)cc3)c2Cl)c1 | i
12 | CNC(=O)CSc1ncc(-c2ccc(C)cc2)n1-c1ccc(OC(F)F)cc1 | i
13 | CC(C)Oc1ccc(-c2noc(-c3cn[nH]c3-c3ccccc3)n2)cc1 | i
14 | Cc1nnsc1C(=O)N1CCN(Cc2c(C)noc2C)CC1 | i
15 | CNC(=O)CSc1nnc(N2CCN(C(=O)Cc3cccs3)CC2)s1 | i
16 | O=C(Cn1cc(S(=O)(=O)N2CCOCC2)ccc1=O)NC1CCCCC1 | i
17 | COc1ccc(-c2c(C)c3ccc(O)c(C)c3oc2=O)cc1 | i
18 | COc1cccc(COc2coc(C(=O)NC(C)c3ccccc3)cc2=O)c1 (centres undefined) | i
19 | COc1cccc(N2CC(C(=O)NCC3(c4ccc(F)cc4)CC3)CC2=O)c1 (centres undefined) | i
20 | O=C(NCCc1ccoc1)c1ccc(OC(F)(F)F)cc1 | i
21 | COc1ccc(S(=O)(=O)NCc2ccccc2)cc1N(C)S(=O)(=O)c1ccccc1 | i
22 | CCN1CCc2c(sc(NC(=O)c3ccc(OC)c(OC)c3)c2-c2nc3ccccc3s2)C1 | i
23 | CC(=O)Cn1c(=O)c2c(nc3n2CCCN3c2ccc(C)cc2C)n(C)c1=O | i
24 | COc1ccccc1C(=O)Cn1cccc(-c2nc(-c3ccncc3)no2)c1=O | i
25 | C=C(C)Cn1c(=O)c2c(nc3n2CC(C)=NN3CC(=O)OCC)n(C)c1=O | i
26 | COc1ccc(-c2ccc(=O)n(CCN3CCN(S(=O)(=O)c4ccc(C(C)=O)cc4)CC3)n2)cc1 | i
27 | COc1cccc(C(O)=C2C(=O)C(=O)N(c3cc(C)on3)C2c2ccccc2)c1 (centres undefined) | i
28 | COC(=O)c1ccc2c(=O)n(-c3cc(OC)cc(OC)c3)c(N3CCN(C(C)C)CC3)nc2c1 | i
29 | O=C(/C=C/c1ccccc1)N1CCC(CSCc2ccco2)CC1 | i
30 | COc1ccccc1OCC(=O)NCCS(=O)(=O)N1CCc2ccccc2C1 | i
31 | C/C(=C/CCC(CO)C1CCC2(C)C3CCC4C(C)(C)C(OC5OC(CO)C(O)C(O)C5O)CC(O)C45CC35CCC12C)COC1OC(CO)C(O)C(O)C1O (centres undefined) | i
32 | CC1CCC(NC(=O)CCn2c(=S)[nH]c3cc4c(cc3c2=O)OCO4)CC1 (centres undefined) | i

Some of the entries so far, field by field.
27: COc1cccc(C(O)=C2C(=O)C(=O)N(c3cc(C)on3)C2c2ccccc2)c1 (centres undefined)
  GIRK2 activ: i
28: COC(=O)c1ccc2c(=O)n(-c3cc(OC)cc(OC)c3)c(N3CCN(C(C)C)CC3)nc2c1
  GIRK2 activ: i
29: O=C(/C=C/c1ccccc1)N1CCC(CSCc2ccco2)CC1
  GIRK2 activ: i
30: COc1ccccc1OCC(=O)NCCS(=O)(=O)N1CCc2ccccc2C1
  GIRK2 activ: i

(list continues)
# | structure | GIRK2 activ
33 | CC(C)c1ccc(OCC(=O)Nc2ccc(N3CCOCC3)cc2)cc1 | i
34 | O=C(Cc1ccccc1Cl)N1CCCC(c2nnc(-c3ccccc3F)s2)C1 (centres undefined) | i
35 | Cc1cccc(-c2csc3c(=O)[nH]c(N4CCC(C(=O)NC5CCCCC5)CC4)nc23)c1 | i
36 | Cc1ccc(C(CN)N2CCOCC2)cc1 (centres undefined) | i
37 | Cc1nc(-c2ccccc2Cl)sc1CNC(=O)c1cc(-c2ccco2)[nH]n1 | i
38 | COc1ccccc1N1CCN(C(=O)c2cn(C)nn2)CC1 | i
39 | O=C(COc1ccccc1)NCC(O)c1cccc2ccccc12 (centres undefined) | i
40 | Cc1nnc(NC(=O)CCc2csc(NC(=O)Nc3ccccc3)n2)s1 | i
41 | COc1ccc(-c2cc(C(=O)N3CCC(NC(=O)c4ccccc4Cl)CC3)[nH]n2)cc1 | i
42 | COc1ccc(/C=C/C(=O)Nc2ccc3c(c2)OCO3)c(OC)c1 | i
43 | COc1cc(NS(=O)(=O)c2ccc(NC(=O)c3ccc(S(=O)(=O)N4CCOCC4)cc3)cc2)ncn1 | i
44 | Cn1c(SCC(=O)Nc2nccs2)nnc1-c1ccc(=O)n(C)c1 | i
45 | COc1ccc(-c2c(C)oc3cc(OCC(=O)OC(C)(C)C)ccc3c2=O)cc1OC | i
46 | CCOCCn1c(=O)c2c(nc3n(-c4cc(C)cc(C)c4)c(C)c(C)n23)n(C)c1=O | i
47 | COc1cccc(NC(=O)CN2CCC3(CC2)N=C(c2ccccc2)C(=O)N3)c1 | i
48 | O=C(CN1C(=O)CCC1=O)N1CCC(Oc2nc3c(Cl)cccc3s2)CC1 | i

An excerpt of these results, field by field.
#35 Cc1cccc(-c2csc3c(=O)[nH]c(N4CCC(C(=O)NC5CCCCC5)CC4)nc23)c1
  GIRK2 activ: i

#42 COc1ccc(/C=C/C(=O)Nc2ccc3c(c2)OCO3)c(OC)c1
  GIRK2 activ: i

#36 Cc1ccc(C(CN)N2CCOCC2)cc1 (centres undefined)
  GIRK2 activ: i

#26 COc1ccc(-c2ccc(=O)n(CCN3CCN(S(=O)(=O)c4ccc(C(C)=O)cc4)CC3)n2)cc1
  GIRK2 activ: i

Further records.
# | structure | GIRK2 activ
49 | COc1ccc(C(=O)Oc2ccc3c(c2)O/C(=C\c2cccnc2)C3=O)cc1OC | i
50 | O=C(NCc1ccccc1)c1cc(=O)c(OCc2ccc(F)cc2)co1 | i
51 | COc1nn(C)cc1C(=O)NCC1CCN(Cc2cccs2)CC1 | i
52 | COc1ccc(CCn2cc(-c3nc(C)no3)ccc2=O)cc1 | i
53 | Cc1cc(C(O)CCNS(=O)(=O)/C=C/c2ccccc2)c(C)o1 (centres undefined) | i
54 | COc1ccc(NC(=O)c2ccc3c(=O)n(-c4ccccc4)c(=O)[nH]c3c2)cc1OC | i
55 | COc1ccc2cccc(NC(=O)c3c(-c4ccccc4Cl)noc3C)c2n1 | i
56 | O=C(CN1CCCC(COCc2ccccc2)C1)N1CCN(c2ccccc2)CC1 (centres undefined) | i
57 | O=C(c1cc2cccnc2n(Cc2ccc(Cl)cc2)c1=O)N1CCN(c2ccc(F)cc2)CC1 | i
58 | CC(=O)c1cccc(C(=O)NC2CCN(C(=O)c3cc(-c4ccc(F)cc4)n[nH]3)CC2)c1 | i
59 | O=C(COc1cccc(Cl)c1)Nc1cc(N2CCOCC2)ncn1 | i
60 | O=C(NCC1CCN(c2ccccn2)CC1)c1ccccc1Cl | i
61 | COc1ccc(SCCCC(=O)NCc2ccccc2)cc1 | i
62 | CCCCn1c(SCC(=O)NCc2ccco2)nc2ccc(N3CCOCC3)cc2c1=O | i
63 | CSc1ccccc1C(=O)Nc1nc2nc(C)cc(C)c2s1 | i
64 | Cn1cnnc1SCc1cc(=O)c(OCC(=O)Nc2cccc(C(F)(F)F)c2)co1 | i
65 | O=C(Cn1ccc2ccccc21)N1CCN(C(=O)c2ccco2)CC1 | i
66 | COc1cccc2sc(OC3CN(C(=O)CCc4c(C)noc4C)C3)nc12 | i
67 | O=C(CSc1nc2ccccc2s1)N1CC(c2nc(-c3cccc(C(F)(F)F)c3)no2)C1 | i
68 | O=C(NCCCc1ccccc1)C1CCN(c2ncccc2S(=O)(=O)N2CCCCC2)CC1 | i
69 | Cc1cc(C)n(-c2ccnc(N3CCC(C(=O)N4CCCC4)CC3)n2)n1 | i
70 | O=C(NCc1ccc(OCc2ccccc2)cc1)c1coc(NC(=O)c2cnccn2)n1 | i
71 | O=C(CCc1ccccc1)N1CCC(Oc2ccc(Cl)cn2)CC1 | i
72 | CCOC(=O)Cn1c(=O)c2c(nc3n2CCCN3c2ccccc2C)n(C)c1=O | i
73 | COc1ccc(N2C(=O)/C(=C/c3ccc(OC)c(OC)c3)SC2=S)cc1 | i
74 | CCS(=O)(=O)c1ccc(CC(=O)N(CCn2cccn2)c2nc3c(Cl)cccc3s2)cc1 | i
75 | O=C(N(CCc1cccs1)Cc1ccco1)C12CC3CC(CC(C3)C1)C2 | i
76 | Cn1nc(C(=O)N2CCC(Cc3ccccc3)CC2)ccc1=O | i
77 | Cn1nc(CNC(=O)c2ccsc2)c2c1CCCC2 | i
78 | CCOc1ccccc1N1COc2ccc3c(=O)c(-c4ccc(OC)c(OC)c4)coc3c2C1 | i
79 | O=C(O)c1ccc(NS(=O)(=O)c2cccc(Cl)c2)cc1 | i
80 | COc1cccc(-n2ccc(=O)c(-c3nc(-c4ccccc4OCc4ccccc4)no3)n2)c1 | i
81 | CS(=O)(=O)N1CCC(C(=O)N2CCC(Oc3ccc(Cl)cn3)CC2)CC1 | i
82 | Cc1cc(S(=O)(=O)NCCCN2CCOCC2)c(Cl)cc1Cl | i
83 | O=C(Nc1nc(-c2ccc(F)cc2)cs1)C1CCN(S(=O)(=O)c2ccc(Cl)cc2)CC1 | i
84 | O=C(c1ccsc1)N1CCC(c2nnc(-c3ccco3)o2)CC1 | i
85 | COc1ccc(CNC(=O)Cn2nc3c(SCc4ccc(Cl)cc4)nccn3c2=O)cc1 | i
86 | Cc1cccc(CS(=O)(=O)N2CCN(CCn3ccnc3-c3ccccc3)CC2)c1 | i
87 | C=C(C)Cn1c(C2CC(=O)N(c3ccccc3C)C2)nc2ccccc21 (centres undefined) | i
88 | COc1nn(C)cc1C(=O)NCc1cc(-c2cccs2)n(C2CCCC2)n1 | i
89 | COc1ccc(S(=O)(=O)N2CCCOC2CNC(=O)C(=O)NCc2ccccc2)cc1C (centres undefined) | i
90 | CCOc1ccc(N2CCCn3c2nc2c3c(=O)n(Cc3ccccc3C)c(=O)n2C)cc1 | i
91 | CCOc1ccc(NC(=O)Cn2nc3c4cccc(C)c4ncn3c2=O)cc1 | i
92 | Cc1cc(C(O)CCNS(=O)(=O)c2cccc(Cl)c2C)c(C)o1 (centres undefined) | i
93 | O=C(Cn1ncn2nc(-c3ccccc3)cc2c1=O)N1CCCC1 | i
94 | CS(=O)(=O)N1CCc2nc(NC(=O)c3csc(-c4ccccc4)n3)sc2C1 | i
95 | COc1ccccc1-n1nnc(C(=O)NCc2ccccc2F)c1-c1ccncc1 | i
96 | COc1ccc(CCNC(=O)Cc2c(C)nc(SC(C)c3ccccc3)[nH]c2=O)cc1 (centres undefined) | i
97 | O=S(=O)(Cc1ccc(F)cc1)NCCN1CCN(c2ccccc2)CC1 | i
98 | COCCn1cnc2c(-c3ccccc3)cn(CC(=O)Nc3c(C)cccc3C)c2c1=O | i
99 | Cn1nnn(-c2ccc(NC(=O)c3ccc4nsnc4c3)cc2)c1=O | i
100 | Nc1c(C(=O)NCc2ccccc2)c2nc3ccccc3nc2n1/N=C\c1cccs1 | i
101 | Cc1cc(C)c2c(n1)nn1c(NCCCn3ccnc3)cc(C)nc21 | i
102 | O=C(c1cn(-c2cccc(F)c2)nn1)N1CCSCC1 | i
103 | CCCCC(CC)CNC(=O)CCCn1c(=O)[nH]c2ccsc2c1=O (centres undefined) | i
104 | Cc1cc(C)c(S(=O)(=O)NCCC(=O)N2CCCCC2)cc1N(C)S(C)(=O)=O | i

Later entries
# | structure | GIRK2 activ
105 | O=C(NCc1ccccc1)N1CCOC(c2cc(Cl)cc(Cl)c2)C1 (centres undefined) | i
106 | Cc1ccc(-c2nc(C)cc(OCC(=O)Nc3ccc4c(c3)OCO4)n2)cc1 | i
107 | Nc1nc(N)nc(-c2cc(Cl)ccc2Cl)n1 | i
108 | COc1ccc(OCc2noc(CNC(=O)Nc3cc(OC)c(OC)c(OC)c3)n2)cc1 | i
109 | COc1ccc(CNC(=O)Nc2nc3c(F)cc(F)cc3s2)cc1 | i
110 | CCSc1nnc(NC(=O)C(C)n2nc(-n3nc(C)cc3C)ccc2=O)s1 (centres undefined) | i
111 | NC(=O)c1ccc(NC(=O)CN2CCC(COCc3ccc(F)cc3)CC2)cc1 | i
112 | Cc1cc(C)c(S(=O)(=O)N2CCN(C(=O)c3cccs3)CC2)c(C)c1 | i
113 | O=C(c1ccc(S(=O)(=O)N2CCOCC2)cc1)N1CCC(COCc2ccc(Cl)cc2)CC1 | i
114 | Cc1nc(-c2ccccc2F)sc1CNC(=O)c1cc2ccccc2o1 | i
115 | COC(=O)c1ccccc1NC(=O)C(C)N1C(=O)c2ccccc2S1(=O)=O (centres undefined) | i
116 | Cc1ccsc1/C=C1\Oc2cc(OS(C)(=O)=O)ccc2C1=O | i
117 | Cc1nc(NC(=O)c2ccccc2)sc1CN1CCOCC1 | i
118 | COCC1CCCN(CC(=O)Nc2ccccc2)C1 (centres undefined) | i
119 | CCOc1ccccc1-n1nnc2c(=O)n(Cc3nc(-c4ccc5c(c4)OCO5)no3)cnc21 | i
120 | Cc1nn(C2CCS(=O)(=O)C2)c(C)c1N1CCN(C(=O)c2csc(-c3ccccc3)n2)CC1 (centres undefined) | i
121 | O=C(Nc1cc(OCc2ccc3c(c2)OCO3)ncn1)c1csc(-c2ccccc2)n1 | i
122 | CCNC(=O)C1Cc2ccccc2N1C(=O)c1cc(OC)cc(OC)c1 (centres undefined) | i
123 | O=C(CSc1cc(N2CCN(c3ccccc3F)CC2)ncn1)Nc1ccc(Cl)cc1F | i
124 | CCC(O)c1nc2ccccc2n1CCCCOc1ccccc1Cl (centres undefined) | i
125 | CCCn1c(=O)c2c(nc3n(-c4ccc(OC)cc4OC)c(C)cn23)n(C)c1=O | i
126 | COC(=O)CSc1nc2c(c(=O)n(C)c(=O)n2C)n1CC(O)COc1ccc(OC)cc1 (centres undefined) | i
127 | O=C(CN1CCC(c2nnc(-c3ccoc3)o2)CC1)OCc1ccccc1 | i
